PK Bst – Pyruvate Kinase | 1.2% of 51,000 active | AID 361, 2006 | Potency, µM | partly purified Bacillus stearothermophilus pyruvate kinase, luminescence ATP production; ribose 5-phosphate activator present at AC10; in the data active means potency below about 11 µM; inconclusive means mostly about 12 µM to 25 µM; inactive means weaker than that;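 the screen sought inhibitors and activators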;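 note: potency is the fitted concentration of half-maximal effect; scaled between full activation by ribose 5 phosphate and full inhibition by luteolin; about four in five hits inhibit and the cells do not say which; series up to 57 µM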
YjeE inh – qHTS Assay for Inhibitors of YjeE. Potency, µM. purified YjeE, fluorescence polarisation of a bound ADP probe. 0.05% of 71,000 active. AID 605, 2007. tRNA threonylcarbamoyladenosine biosynthesis protein TsaE (Escherichia coli (strain …; active = well fitted falling curve; inconclusive = weaker or top-dose-only fall, or a rising curve; inactive = flat or poorly fitted curve;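 note: top concentration of the series not given in the record; excess ADP was the control for the full effect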
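Purified YjeE (10 uM) with BODIPY Texas Red-labeled ADP probe (2 uM); compounds pin-transferred, 15 min at room temperature. Binding inhibition read as decreased fluorescence polarization; ADP titration as control.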
The depositor's hits bear a star; i = inactive; ? = inconclusive; nt = not tested or not shown. Some of the compounds tested. The share of hits here may be higher or lower than overall.

SMILES | YjeE inh | PK Bst
COc1ccc(-c2nc(=S)c3c(n2CCN2CCOCC2)CC(C)(C)OC3)cc1 | i | >57
CCOc1ccc2nc(NC(=O)CSc3nc4c(c(=O)n(C)c(=O)n4C)n3C(C)C)sc2c1 | ? | >57
COc1cc(O)c2c(O)c3c(c4c2c1[C@@]1(C4)C(C)=CCCC1(C)C)[C@H](O)[C@@]1(O)CC(=O)C(C(N)=O)=C(O)[C@]1(O)C3=O | i | nt
CC1CCN(S(=O)(=O)c2ccc(-c3nnc(SCc4cccnc4)o3)cc2)CC1 | i | >57
CCn1c(=N)c(S(=O)(=O)c2ccc(F)cc2)cc2c(=O)n3ccccc3nc21 | i | >57
Cc1ccc(C(C)C)cc1C(=O)CC1(O)C(=O)N(C)c2ccccc21 (centres undefined) | i | >57
Cc1cccc(N(CC(=O)NCc2ccc3c(c2)OCO3)C(=O)CCC(=O)Nc2ccccn2)c1 | i | >57
COc1ccc(C2NC(=O)NC(C)=C2C(=O)Nc2cccc(C)c2C)cc1 (centres undefined) | i | nt
Clc1cccc(Cl)c1COc1ccncc1 | i | i
CC1CCN(c2oc(Cc3cccc4ccccc34)nc2C#N)CC1 | i | >57
COc1cc2c(C(=O)NC3CCCCCC3)cn(C)c(=O)c2cc1OC | i | >57
CC1Cc2ccccc2N1Cc1nc2scc(-c3cccs3)c2c(=O)[nH]1 (centres undefined) | i | >57
O=C(CSc1ncn[nH]1)NCCCc1ccccc1 | i | >57
CC(C)(C)c1ccc(NS(=O)(=O)c2ccc(N)cc2)cc1 | i | nt
COC(=O)CN(c1nc(C)cc(OC)n1)S(=O)(=O)c1ccc(C)cc1 | i | >57
Cc1nc2ncnn2c(C)c1CCC(=O)N1CCN(c2ccccn2)CC1 | i | >57
Nc1cc(=O)[nH]c(SCc2nc3ccccc3n2Cc2ccccc2)n1 | i | nt
CC(=O)Nc1ccc(S(=O)(=O)NCc2cn3c(C)csc3n2)cc1 | i | >57
O=C(NCc1ccccc1F)C1CCN(C(=O)NCc2ccccc2)CC1 | i | >57
Cc1nc2cnc(N3CCOCC3)nc2n(Cc2cccs2)c1=O | i | nt
CCOC(=O)N1CCN(C(=O)CSc2nnc(Cc3cccn3C)n2CCc2ccccc2)CC1 | i | >57
COc1cc(OC)c(NC(=O)c2ccoc2C)cc1Cl | i | >57
COc1ccc(CNC(=O)C2CCN(S(=O)(=O)c3ccc(-c4nn[nH]n4)cc3)CC2)cc1 | i | >57
Cc1noc(C)c1C(=O)N1CCC2(CCCN(c3ccccn3)C2)CC1 | i | nt
COc1ccccc1Cc1nc(-c2ccc(C)cc2)no1 | i | >57
CCOC(=O)c1ccc(CSc2nnc(-c3ccncc3)n2N)cc1 | i | nt
Cn1c(=O)n(CCc2ccccc2)c(=O)c2c1nc1n2CCCN1CCc1ccccc1 | i | >57
N=C1C(c2ccc(Br)cc2)=C(O)C2CCc3ccccc3N12 (centres undefined) | i | 3*
C=C(C)Cn1c(C(C)NC(=O)CCC)nc2ccccc21 (centres undefined) | i | >57
Cc1cc(C(=O)COC(=O)c2csc3c2CCCC3)c(C)n1C | i | >57

Looked up by compound from the list above:
SMILES | YjeE inh | PK Bst
CCOC(=O)c1ccc(CSc2nnc(-c3ccncc3)n2N)cc1 | i | nt
COc1ccc(CNC(=O)C2CCN(S(=O)(=O)c3ccc(-c4nn[nH]n4)cc3)CC2)cc1 | i | >57
CC(=O)Nc1ccc(S(=O)(=O)NCc2cn3c(C)csc3n2)cc1 | i | >57

(further entries)
SMILES | YjeE inh | PK Bst
COc1ccc(CCC(=O)Nc2ccc(-c3noc(-c4ccc(OC)c(OC)c4)n3)cc2)cc1 | i | >57
Cc1nn(Cc2ccccc2)c(C)c1NC(=O)c1cc2nc(-c3ccco3)cc(C(F)(F)F)n2n1 | i | >57
COc1ccc(/C=N/n2c(SC)nnc2-c2ccccc2)c(OC)c1OC | i | nt
CCC(c1nnnn1C1CCCC1)N(Cc1cccs1)Cc1cc2cccc(C)c2[nH]c1=O (centres undefined) | i | >57
CCOC(=O)c1cncc(NC(=O)c2ccccc2)c1 | i | >57
O=C(CCCn1c(SCC(=O)c2ccc(Cl)cc2)nc2ccccc2c1=O)NCc1ccco1 | i | >57
N#Cc1cccc(C(c2nnnn2CCc2ccccc2)N2CCN(C3CCCCC3)CC2)c1 (centres undefined) | i | >57
COc1ccccc1C1(O)CC2CCC(C1)N2S(=O)(=O)c1ccc(C(C)=O)cc1 (centres undefined) | i | >57
CCOc1ccccc1CN1CCN(S(=O)(=O)CC)CC1 | i | >57
COc1ccccc1CNC(=O)C1CCN(S(C)(=O)=O)CC1 | i | >57
COC(=O)CCCCC1SCC(NC(=O)OC)C1NC(=O)OC (centres undefined) | i | >57
CCc1ccc(-c2nc(CN3CCCC(C(=O)NCCc4ccc(OC)c(OC)c4)C3)c(C)o2)cc1 (centres undefined) | i | >57
CCCCNC(=O)C1c2cc(OC)c(OC)cc2C(=O)N(C)C1c1ccc(OC)cc1 (centres undefined) | i | >57
Cc1cc(C)nc(Sc2nc(C)nc3c2oc2ccccc23)n1 | i | >57
CN(C)c1nc(OCC(=O)NC(C)(C)C)nc(N(C)C)n1 | i | >57
COc1cccc(C(=O)N(Cc2ccco2)Cc2cc3cccc(C)c3[nH]c2=O)c1 | i | >57
Cc1cccc(NC(=O)C2CCCN(C(=O)Nc3ccccc3)C2)c1C (centres undefined) | i | >57
COc1ccc(NC(=O)CSc2nnc(-c3ccccn3)n2N)cc1 | i | >57
COC(=O)CCC(=O)Nc1ccc(C)cc1OC(=O)CCC(=O)OC | i | nt
CC(=O)c1cccc(NC(=O)c2ccc(NS(C)(=O)=O)cc2)c1 | i | >57
COc1ccc(-c2noc(-c3ccccc3Cl)n2)cc1OC | i | i
COC(=O)CCSc1nccn1Cc1ccccc1 | i | >57
O=C1CC(c2ccccc2)n2nc(NS(=O)(=O)c3ccccc3)nc2N1 (centres undefined) | nt | >26
C[N+](C)(C)CCCSc1nc2ccccc2[nH]1 | i | nt
CC(=O)NCC(=O)N(c1ccccc1)C1(C(=O)NC2CCCCC2)CCCCC1 | i | >57
CCOC(=O)CNC(=O)c1cnn2cccnc12 | i | >57
Cc1cc(OCC(=O)NCc2nc(-c3ccccc3)no2)c(C)cc1Br | i | >57
CN(C(=O)c1ccc2c(=O)n3c(nc2c1)CCCCC3)c1ccccc1 | i | >57
COc1ccccc1-n1c(SCC(=O)N2CCCCC2)nnc1-c1ccccc1O | i | >57
O=C(O)CCCC(=O)NCCCCc1ccccc1 | i | nt
CN(C)Cc1ccccc1-c1cc(N(C)C)ncn1 | i | nt
CCC(C)(C)NC(=O)C(c1cccn1C)N(C(=O)Cn1nnc2ccccc21)c1ccc(F)cc1 (centres undefined) | i | >57
O=C(Cn1c(-c2ccc(Cl)cc2)noc1=O)N1CCN(c2ccccc2F)CC1 | i | >57
COC(=O)CSc1nc(C(C)C)nc2ccccc12 | i | >57
CNc1csc(C)c(C)c1=O | i | >57
CC1(C)CC(=O)C=C(Nc2ccc(S(N)(=O)=O)cc2)C1 | i | >57
COc1ccc(C2(C(=O)Nc3ccc(C(=O)N4CCOCC4)cc3)CCOCC2)cc1 | i | >57
O=C(O)C1CSC2(c3ccc4c(c3)OCCO4)CCC(=O)N12 (centres undefined) | i | >57
Cc1cccc(N2CC(C)Cn3c2nc2c3c(=O)n(CC(=O)OCc3ccccc3)c(=O)n2C)c1 (centres undefined) | i | >57
CCS(=O)(=O)c1ccc2oc(SCC(=O)NCCC3=CCCCC3)nc2c1 | i | >57
N=c1nc(SCCC(=O)O)ss1 | i | >57
Cc1ccc2oc(-c3ccccc3)c(O)c(=O)c2c1 | i | nt
CSCCC(NC(=O)C1CCC(C)CC1)C(=O)NCCN1CCOCC1 (centres undefined) | i | >57
CCOC(=O)N1CCC2(CC1)C(C(=O)C13CC4CC(CC(C4)C1)C3)C2(C#N)C#N (centres undefined) | i | >57
CC1=C(C(=O)Nc2ccccc2)C(c2ccccc2)N2C(=O)CSC2=N1 (centres undefined) | i | nt

Exported field by field: part of the list above.
N=c1nc(SCCC(=O)O)ss1
  YjeE inh: i
  PK Bst: >57
Cc1ccc2oc(-c3ccccc3)c(O)c(=O)c2c1
  YjeE inh: i
  PK Bst: nt

Next results.
SMILES | YjeE inh | PK Bst
COc1ccccc1CNc1ncncc1-c1cccc(NS(C)(=O)=O)c1 | i | nt
CC(C)Cn1c(CN(C)Cc2ccccc2)nc2c1c(=O)n(C)c(=O)n2C | i | nt
C[N+](C)(C)c1ncnc2c1ncn2[C@@H]1CCCCO1 | i | nt
COc1ccccc1NC(=O)CC(=O)CSc1nnc(-c2ccc(C)cc2)n1C | i | >57
COc1cc(OC)c(OC)cc1CN1CCCC(C(=O)N2CCCCC2)C1 (centres undefined) | i | >57
CN(CC(=O)NCCc1ccccc1)S(=O)(=O)c1cccs1 | i | >57
C/C(Cl)=C\Cn1c(NCCCn2ccnc2)nc2c1c(=O)n(C)c(=O)n2C | i | >57
CC(C)CNc1nc2c(c(=O)n(C)c(=O)n2C)n1Cc1cccc(Br)c1 | nt | >26
CCc1nnc(NC(=O)CSc2nnc(Cc3cccn3C)n2CCOC)s1 | i | nt
CC1CCCCC1NC(=O)C1CCN(S(=O)(=O)N2CCC3(CC2)OCCO3)CC1 (centres undefined) | i | >57
CN(C)CCN1C(=O)C(O)=C(C(=O)c2cc3ccccc3o2)C1c1ccc(N(C)C)cc1 (centres undefined) | i | nt
CC(=O)C1=C(O)C(=O)N(C2CCCCC2)C1c1ccccc1 (centres undefined) | i | >57
CC1CCCCN1C(=O)CN1C(=O)CN(C)C(=O)c2ccccc21 (centres undefined) | i | >57
CCN1CCN(CCNC(=O)c2ccc(CS(=O)(=O)c3ccccc3C)o2)CC1 | i | >57
O=C(NCc1ccc(F)cc1)C1CCN(S(=O)(=O)N2CCC3(CC2)OCCO3)CC1 | i | >57
CSC1=N/C(=C\c2ccccc2F)C(=O)S1 | i | nt
O=C(C1CCC(C(=O)N2CCCC2)CC1)N1CCCC1 (centres undefined) | i | >57
CCn1cc(C(=O)N=c2sc3ccccc3n2C)c(=O)c2ccc(C)nc21 | i | >57
Cc1ccc(SCCNC(=O)C(CO)(CO)CO)cc1 | i | nt
CCOc1ccc2nc(N3CCCN(C(=O)Nc4ccccc4C)CC3)c(C#N)cc2c1 | i | >57
O=C(CSc1ncnc2c1oc1ccccc12)c1cccs1 | i | >57
COc1cc(OC)cc(C(=O)NCCSCc2ccco2)c1 | i | >57
O=C(COC(=O)CSc1nnc(-c2ccc(Cl)cc2)o1)NCc1ccc2c(c1)OCO2 | i | >57
CC12CCC(C(=O)NCCCn3ccnc3)(OC1=O)C2(C)C (centres undefined) | i | >57
COCCNc1ncnc2c1cnn2-c1ccc(Cl)cc1 | nt | 10*
COc1ccc(CCNC(=O)c2cc3ccccn3n2)c(OC)c1OC | i | nt
COC(=O)C1CCN(S(C)(=O)=O)CC1 | i | >57
NC(=O)c1cc2ccc(O)cc2oc1=NCc1ccccc1 | i | nt
Cc1ccc(OCC(O)CN2CCN(CC(O)COC(C)C)CC2)c(C(C)(C)C)c1 (centres undefined) | i | >57
Nc1nc(N)c(CCCCc2ccccc2)c(N)n1 | i | nt

With a hit mark in PK Bst, among the entries above:
SMILES | YjeE inh | PK Bst
N=C1C(c2ccc(Br)cc2)=C(O)C2CCc3ccccc3N12 (centres undefined) | i | 3*
COCCNc1ncnc2c1cnn2-c1ccc(Cl)cc1 | nt | 10*

Additional results follow.
SMILES | YjeE inh | PK Bst
CS(=O)(=O)NCCSCc1c(F)cccc1Cl | i | nt
Cc1ccc2oc(=O)n(CC(=O)O)c2c1 | i | nt
O=C(CCCCCn1c(=O)[nH]c2ccsc2c1=O)N1CCN(C2CCCCC2)CC1 | i | nt
Cn1c(CN2CCCC2)nc2cc(NC(=O)COc3ccc(Cl)cc3)ccc21 | i | >57
CCOC(=O)c1c(-c2ccsc2)csc1N | i | >57
CC(C)OCCCN1C(=O)c2ccccc2C1C(=O)NC1CCCCC1 (centres undefined) | i | >57
O=C(O)c1cccc(N2C(=O)CSC2c2c(F)cccc2Cl)c1 (centres undefined) | i | >57
CCCC(=O)OCC(=O)Nc1cc(C(C)(C)C)nn1-c1ccccc1 | i | >57
Cc1ccc(-n2nnc3c(=O)n(CC(=O)NCC4CCCO4)cnc32)cc1 (centres undefined) | i | >57
O=C(c1ccc(S(=O)(=O)N2CCCC2)cc1)N1CCCc2ccccc21 | i | nt
OCCNc1ncnc2nc[nH]c12 | i | nt
CCSc1nc2nc(C)cc(C)n2n1 | i | >57
O=C(Cn1nnc(-c2cccc(C(F)(F)F)c2)n1)NC1CCCC1 | i | >57
O=C(CC(SCCO)c1ccc(F)cc1)c1ccco1 (centres undefined) | i | >57
O=C(O)c1[nH]c2c([N+](=O)[O-])cc([N+](=O)[O-])cc2c1C(=O)O | i | nt
Cc1cccc(NC(=O)CNc2cc(C)ccc2C)c1 | i | >57
Cc1nnc(-c2ccccc2)c[n+]1[O-] | i | >57
COc1cc(-c2nnc(-c3ccc(S(=O)(=O)c4ccccc4)cc3)o2)cc(OC)c1OC | i | >57
